rRNA inh HTS = selective bacterial rRNA inhibition in E. coli; E. coli WT GFP vs humanized-ribosome RFP mutants, fluorescence, 24 h; active compounds read low; DMSO median 0, no signal -100; GFP signal change (wild-type ribosome), % (test concentration not listed); hit rate 1.6% among 350,000; AID 720706;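 active = significant combined selectivity score with lowered wild-type GFP, culture density cut under 30%, mutant RFP and density less affected; inactive = any of these conditions unmet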; note: one replicate is shown; some compounds called inactive have numbers as strong as hits
rRNA inh HTS OD600 = further read-out of rRNA inh HTS, marked with its call; OD600 change, %; measured here: OD600 growth;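 optical density of the mix in the first replicate; 0 = DMSO median and -100 = no signal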
rRNA inh HTS RFP = also measured in rRNA inh HTS; calls as there; RFP signal change, %; measured here: RFP humanized mutant strains;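 first replicate; 0 = DMSO median and -100 = no signal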
An asterisk follows results filed as active; & = joins results of further samples.

rRNA inh HTS | rRNA inh HTS OD600 | rRNA inh HTS RFP | Molecule
-3 | -1 | 0.5 | Cc1ccccc1NC(=O)CN1CCN(c2ccc(F)cc2)CC1
-12 | -47 | 30 | CC(C)NC(=O)Nc1ccc2c(c1)CC(=O)N([C@H](C)CO)C[C@H](C)[C@@H](CN(C)Cc1ccc(C(F)(F)F)cc1)O2
-4 | 2 | 1.6 | COc1ccc(NC(=O)Nc2ccc3c(c2)C(=O)N([C@H](C)CO)C[C@@H](C)[C@H](CN(C)Cc2ccc(-c4ccccc4)cc2)O3)cc1
-4 | 9 | -5.5 | C[C@@H]1CCCCO[C@@H](CN(C)S(=O)(=O)c2ccc(F)cc2)[C@@H](C)CN([C@@H](C)CO)C(=O)c2cc(NC(=O)Nc3ccc(C(F)(F)F)cc3)ccc2O1
4 | 4 | 0.2 | O=C(O)CC(Sc1ccc(Cl)cc1)C(=O)Nc1ccccc1 (stereo unspecified)
2 | 4 | -2.6 | O=C([C@@H]1[C@@H](CO)[C@@H]2Cn3c(ccc(-c4cccnc4)c3=O)[C@@H]2N1CCC(F)(F)F)N1CCOCC1
3 | 5 | 0.2 | CN(C)CC(=O)Nc1ccc2c(c1)[C@H]1C[C@@H](CC(=O)NCc3ccccn3)O[C@H](CO)[C@H]1O2
-2 | -3 | -1.4 | COc1ccc(-c2ccc([C@H]3[C@@H](CO)N(C(=O)C4CC4)[C@H]3C#N)cc2)cc1
1 | 4 | 0.5 | C[C@@H]1CN([C@@H](C)CO)C(=O)c2cc(-c3ccncc3)cnc2O[C@H]1CN(C)C(=O)Nc1ccc2c(c1)OCO2
-2 | -4 | -3.0 | COc1cccc(S(=O)(=O)N[C@H]2CC[C@@H](CCn3cc(-c4ccccn4)nn3)O[C@H]2CO)c1
4 | -4 | 1.0 | C[C@@H]1CN([C@@H](C)CO)C(=O)c2cc(C#CC3CCCCC3)cnc2O[C@@H]1CN(C)S(=O)(=O)c1ccccc1
1 | 13 | 0.6 | C[C@H](CO)N1C[C@H](C)[C@H](CN(C)Cc2ccc(C(F)(F)F)cc2)OCCCC[C@H](C)Oc2ccc(NC(=O)Nc3cccc4ccccc34)cc2C1=O
2 | 9 | -1.2 | Cc1ccc(S(=O)(=O)N(C)C[C@@H]2OCCCC[C@@H](C)Oc3ccc(NC(=O)c4ccncc4)cc3C(=O)N([C@H](C)CO)C[C@@H]2C)cc1
-5 | -4 | 3.6 | C[C@H](CO)N1C[C@H](C)[C@H](CN(C)C(=O)Nc2ccc(F)cc2)Oc2ccc(NC(=O)Nc3ccccc3)cc2C1=O
-54&-25 | -77&-67 | -13&-0.2 | Fc1cccc(CN2[C@@H]3CNC[C@H]2C3c2ccc(-c3cccc(F)c3)cc2)c1 (stereo partly specified)
2 | 6 | 3.7 | C[C@H](CO)N1C[C@H](C)[C@@H](CN(C)C(=O)C2CCCCC2)Oc2ncc(C#CC(C)(C)O)cc2C1=O
1 | -3 | 0.1 | Cc1noc(C)c1S(=O)(=O)N(C)C[C@H]1Oc2ccc(NC(=O)Nc3ccc4c(c3)OCO4)cc2C(=O)N([C@@H](C)CO)C[C@H]1C
0 | -4 | 12 | O=C(C1CCC1)N1CC[C@@H]2[C@@H](CO)Nc3ccc(C#Cc4cccc(F)c4)cc3[C@@H]21
-6 | -11 | 2.8 | COc1cccc(/C=C/C(=O)N2CCN(S(=O)(=O)c3ccccc3)CC2)c1
-5 | 6 | -8.7 | CNc1ccc(-c2cccc([N+](=O)[O-])c2)cn1

Taken from the listing for reference:
rRNA inh HTS | rRNA inh HTS OD600 | rRNA inh HTS RFP | Molecule
-3 | -1 | 0.5 | Cc1ccccc1NC(=O)CN1CCN(c2ccc(F)cc2)CC1
-12 | -47 | 30 | CC(C)NC(=O)Nc1ccc2c(c1)CC(=O)N([C@H](C)CO)C[C@H](C)[C@@H](CN(C)Cc1ccc(C(F)(F)F)cc1)O2
-4 | 2 | 1.6 | COc1ccc(NC(=O)Nc2ccc3c(c2)C(=O)N([C@H](C)CO)C[C@@H](C)[C@H](CN(C)Cc2ccc(-c4ccccc4)cc2)O3)cc1
-4 | 9 | -5.5 | C[C@@H]1CCCCO[C@@H](CN(C)S(=O)(=O)c2ccc(F)cc2)[C@@H](C)CN([C@@H](C)CO)C(=O)c2cc(NC(=O)Nc3ccc(C(F)(F)F)cc3)ccc2O1
4 | 4 | 0.2 | O=C(O)CC(Sc1ccc(Cl)cc1)C(=O)Nc1ccccc1 (stereo unspecified)

Compound profiles, from the list above. Order of values: rRNA inh HTS, rRNA inh HTS OD600, rRNA inh HTS RFP
Profile of Fc1cccc(CN2[C@@H]3CNC[C@H]2C3c2ccc(-c3cccc(F)c3)cc2)c1 (stereo partly specified) = -54&-25, -77&-67, -13&-0.2
Profile of Cc1ccccc1NC(=O)CN1CCN(c2ccc(F)cc2)CC1 = -3, -1, 0.5

Further records.
rRNA inh HTS | rRNA inh HTS OD600 | rRNA inh HTS RFP | Molecule
-4 | -30 | -0.5 | COc1cc(CN2[C@@H]3CNC[C@H]2C3c2ccc(-c3ccc(C)cc3)cc2)cc(OC)c1 (stereo partly specified)
-4 | -35 | 10 | O=C(c1cnccn1)N1CC(=O)N2[C@@H](CO)[C@@H](c3ccc(C#CCC4CCCC4)cc3)[C@@H]2C1
5 | 6 | 2.4 | CC(=O)N1CC(=O)N2[C@H](CO)[C@@H](c3ccc(-c4cccc(C(=O)N(C)C)c4)cc3)[C@H]2C1
1 | 3 | -4.0 | CS(=O)(=O)N1[C@@H]2c3ccc(C4=CCCCC4)c(=O)n3C[C@H]1[C@H](CO)[C@H]2C(=O)N1CCOCC1
4 | 1 | -0.3 | CNC[C@@H]1Oc2c(NC(=O)Nc3ccc(OC)cc3)cccc2C(=O)N([C@@H](C)CO)C[C@H]1C
-3 | -2 | 0.5 | C[C@@H]1CCCCO[C@H](CN(C)C(=O)Cc2ccccc2)[C@@H](C)CN([C@@H](C)CO)C(=O)c2cc(NC(=O)NC3CCCCC3)ccc2O1
2 | 2 | 1.9 | C[C@H](NC(=O)C[C@@H]1C=C[C@@H](NC(=O)C2CCOCC2)[C@@H](CO)O1)c1ccccc1
-59 | -75 | -12 | CCC(=O)N1CCCCN2[C@@H](CO)[C@H](c3ccc(C#Cc4ccccc4)cc3)[C@@H]2C1
-1 | 7 | 4.0 | CC(C)CC#Cc1ccc2c(c1)O[C@H](CN(C)Cc1ccc(F)cc1)[C@H](C)CN([C@@H](C)CO)S2(=O)=O
6 | -3 | 10 | COc1ccc(CN2CCN(Cc3c[nH]c4ccccc34)CC2)cc1OC
-2 | -1 | -4.7 | CC(C)NC(=O)N(C)C[C@@H]1Oc2cc(-c3ccncc3)ccc2S(=O)(=O)N([C@H](C)CO)C[C@@H]1C
1 | 10 | 1.6 | CCC(=O)Nc1ccc2c(c1)C(=O)N(C)C[C@@H](OC)[C@@H](C)CN(C(=O)Cc1cccnc1)[C@H](C)CO2
3 | 12 | -2.7 | CCC(=O)NC[C@@H]1[C@@H](c2ccccc2)[C@@H](CO)N1C(=O)C1CC1
-6 | 2 | 6.0 | CCCNC(=O)NC[C@@H]1[C@H](c2ccc(C3=CCCC3)cc2)[C@H](CO)N1C(=O)CC
5 | -4 | -1.7 | COc1cc(-c2cnc3c(NC=O)cc(-c4ccccc4)cn23)cc(OC)c1OC
4 | 5 | -1.6 | C[C@@H]1CN([C@H](C)CO)C(=O)c2cc(NC(=O)Cn3cnnn3)ccc2O[C@@H]1CN(C)Cc1ccncc1
1 | -6 | 2.2 | O=C(C1CCOCC1)N1CC(=O)N2[C@@H](CO)[C@H](c3ccc(C#CCc4ccccc4)cc3)[C@@H]2C1
-39 | -52 | 17 | Cc1ccc(NS(=O)(=O)c2ccc(-c3coc(C)n3)cc2)c(Cl)c1
1 | 6 | -0.6 | C[C@H]1CCCCO[C@@H](CN(C)Cc2ccc(C(=O)O)cc2)[C@@H](C)CN([C@@H](C)CO)C(=O)c2cc(NC(=O)c3ccccc3)ccc2O1
3 | 18 | -3.8 | O=C(C[C@@H]1CC[C@@H](NC(=O)Nc2ccccc2)[C@H](CO)O1)NCc1ccccn1
-1 | 4 | -0.6 | C[C@H]1CN([C@@H](C)CO)C(=O)c2cc(NC(=O)Nc3cccc4ccccc34)ccc2O[C@@H]1CN(C)S(=O)(=O)c1cn(C)cn1
-1 | 3 | -2.8 | O=C(c1ccncc1)N1CC(=O)N2[C@H](CO)[C@@H](c3ccc(/C=C/c4ccccc4)cc3)[C@H]2C1
0 | -6 | 2.3 | CCCN(C)C[C@H]1Oc2cc(C#CC(C)C)ccc2S(=O)(=O)N([C@@H](C)CO)C[C@H]1C
-3 | 0 | -5.4 | CN(C)C(=O)c1cccc(-c2ccc3c(c2)[C@H]2[C@H](CCN2C(=O)c2ccncc2)[C@@H](CO)N3C)c1
2 | 11 | 0.2 | C/C=C/c1cnc2c(c1)C(=O)N([C@H](C)CO)C[C@H](C)[C@H](CN(C)C(=O)Cc1ccccc1)O2
2 | 6 | -5.6 | C#CCN(C[C@H]1[C@H](OC(=O)NCc2ccccc2)[C@H](OC(=O)NCc2ccccc2)C[C@@H](C(=O)OC)[C@H]1C(=O)OC)S(=O)(=O)c1ccc(C)cc1
-1 | -4 | 0.9 | COc1cccc(C(=O)Nc2ccc3c(c2)C(=O)N(C)C[C@@H](OC)[C@H](C)CN(C(C)=O)[C@@H](C)CO3)c1
-4 | -5 | 12 | CCCC#Cc1cnc2c(c1)C(=O)N([C@H](C)CO)C[C@H](C)[C@@H](CN(C)S(=O)(=O)c1cccc(OC)c1)O2
-1 | -5 | 5.7 | CCCNC(=O)[C@H]1[C@H](CO)[C@H]2Cn3c(ccc(-c4ccccc4F)c3=O)[C@H]2N1CCC
6 | -1 | -1.4 | Cn1ccc2c(-c3ccc(C(=O)O)cc3)cc3c(c21)C1CCC3O1 (stereo unspecified)
6 | 0 | 0.6 | C[C@H](CO)N1C[C@H](C)[C@H](CN(C)S(C)(=O)=O)Oc2ccc(NC(=O)Nc3ccc(F)cc3)cc2CC1=O
0 | 7 | -3.2 | COCC(=O)N1CC2(CCN(Cc3cncnc3)CC2)c2c(n(C)c3cc(OC)ccc23)[C@H]1CO
2 | 4 | -1.8 | CO[C@H]1CN(C)C(=O)c2cc(NS(C)(=O)=O)ccc2OC[C@H](C)N(C(=O)NC(C)C)C[C@@H]1C
1 | -1 | -1.0 | CO[C@H]1CN(C)C(=O)c2cc(NS(=O)(=O)CC(F)(F)F)ccc2OC[C@H](C)NC[C@@H]1C
0 | 1 | 2.5 | Cc1ccc(S(=O)(=O)Nc2ccc3c(c2)C(=O)N([C@@H](C)CO)C[C@H](C)[C@@H](CN(C)C(=O)Nc2c(C)noc2C)OCCCC[C@H](C)O3)cc1
-3 | -3 | -0.6 | C#CCNC(=O)C[C@@H]1C[C@@]2(C(=O)OC)CC(C)(C)CC=C2N(CCc2ccc(OC)c(OC)c2)C1=O
2 | 7 | -0.9 | O=C(N[C@@H]1CC[C@H](CCNS(=O)(=O)c2ccc(F)cc2)O[C@H]1CO)c1cccnc1
-7 | 9 | 1.7 | C[C@@H]1CCCCO[C@@H](CN(C)C(=O)c2ccncc2)[C@H](C)CN([C@@H](C)CO)C(=O)c2cc(NC(=O)c3ccccc3)ccc2O1
9 | 14 | -2.8 | S=c1[nH]cc2cnccn12
-2 | 3 | 0.0 | N#C[C@H]1[C@@H](c2ccccc2)[C@@H](CO)N1S(=O)(=O)c1ccc(F)cc1
-2 | -3 | 0.4 | CC(C)NC(=O)N1C[C@H]2[C@@H](c3ccccc31)[C@@H](CO)N2Cc1ccc(Cl)cc1
1 | -19 | -2.1 | O=C(Nc1ccccc1)N1CC(=O)N2[C@H](CO)[C@@H](c3ccc(C#CC4CCCCC4)cc3)[C@H]2C1
52 | -3 | 2.9 | CC(=O)Nc1cc(-c2ccccc2N(C)C)cn2c(-c3ccc(S(C)(=O)=O)cc3)cnc12
2 | 10 | -2.8 | COc1cccc(C(=O)Nc2ccc3c(c2)C(=O)N(C)[C@@H]2CC[C@@H](CC(=O)NCCCN4CCOCC4)O[C@H]2CO3)c1
3 | -10 | -1.7 | C[C@@H]1CCCCO[C@@H](CN(C)Cc2ccc3c(c2)OCO3)[C@H](C)CN([C@H](C)CO)C(=O)c2cc(NC(=O)NC3CCCCC3)ccc2O1
2 | -1 | -4.4 | O=C(C[C@@H]1C[C@H]2c3cc(NC(=O)CC4CC4)ccc3O[C@H]2[C@@H](CO)O1)NCc1ccccc1F
2 | 1 | 1.6 | Cc1ccc(S(=O)(=O)N(C)C[C@H]2Oc3ccc(NC(=O)Nc4ccccc4)cc3CC(=O)N([C@H](C)CO)C[C@H]2C)cc1
0 | -14 | 11 | C/C=C/c1ccc([C@H]2[C@H]3CN(C(=O)Nc4ccccc4F)CCCCN3[C@H]2CO)cc1
-6 | -9 | 6.0 | O=C(Nc1ccc(F)cc1)N[C@H]1CC[C@H](CCNC(=O)c2cc(Cl)cc(Cl)c2)O[C@H]1CO
-1&-3 | 6&-6 | 0.1&1.0 | C[C@H](CO)N1C[C@H](C)[C@@H](CN(C)Cc2cccc(F)c2)Oc2cc(-c3cccc(C#N)c3)ccc2S1(=O)=O
16 | 8 | -0.6 | COC(=O)C[C@@H]1C=C[C@@H](NC(=O)c2ccccc2F)[C@@H](CO)O1
4 | 10 | 1.1 | CC(C)[C@@H](N)C(=O)NC[C@H]1O[C@@H](n2cnc3c(=O)[nH]c(N)nc32)[C@H](O)[C@@H]1O
-25 | -31 | -7.3 | CC(C)C[C@@H]1O[C@H](CCc2ccccc2)Cc2[nH][nH]c(=O)c21
7 | 21 | -1.9 | CC(=O)N(C)C[C@H]1Oc2ncc(C#CC(C)(C)O)cc2C(=O)N([C@@H](C)CO)C[C@H]1C
-4 | -23 | -2.4 | O=C(C[C@@H]1C[C@@H]2c3cc(NS(=O)(=O)c4ccc(F)cc4)ccc3O[C@@H]2[C@@H](CO)O1)NCc1ccccc1
4 | 5 | 2.1 | Cc1noc(C)c1NC(=O)N(C)C[C@H]1Oc2ccc(NS(=O)(=O)c3c(C)noc3C)cc2CC(=O)N([C@@H](C)CO)C[C@@H]1C
-3 | 1 | -0.1 | CCNC(=O)Nc1ccc2c(c1)C(=O)N(C)[C@H]1CC[C@H](CC(=O)Nc3ccccc3Cl)O[C@@H]1CO2

An excerpt; count on the stated rates, not on these rows.
